Source: PubChem
BJeLR lethal – kills HRASV12-expressing BJeLR cells | 300,000 tested, 0.17% active | BJeLR (HRASV12) viability, CellTiter-Glo ATP luminescence, 48 h; reference of the scale not given here | inhibition, % (test concentration not listed) | AID 1554;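 active = replicate mean above 50%; inconclusive = above 50% but judged a plate artefact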;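 also: 50 nL library stock added to about 25 µL; numbers are from one replicate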
Sa RN4220 lethal – S. aureus RN4220 growth inhibition | OD600, 16 h | 330,000 tested, 0.33% active | inhibition, % (concentration not given with the values);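 active = z-score of -3 or lower and OD600 up to 0.18 on both plates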;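 also: plate controls were untreated cells for no effect and reference antibiotic for full effect; stock transfer was 100 nL into about 80 µL; one replicate is shown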
PrP UTR inh – suppresses PrP 5' UTR mRNA reporter expression. cell-based PrP 5' UTR mRNA reporter, plate reader. inhibition, % (no concentration beside the values). 340,000 tested, 0.35% active;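 active = every replicate at 50% or more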;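 also: 0 = median of the neutral control wells; tested in H4 reporter cells; numbers are from one replicate; inactives centre near -14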
Mtb hypoxia inh – Mtb hypoxia fluorescent reporter inhibition; fluorescence inhibition, % (test concentration not listed); M. tuberculosis hypoxia-regulated fluorescent reporter, fluorescence; 300,000 tested, 0.1% active;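 active = 35 to 45% if threefold the growth effect, above 45% if 1.5-fold the growth effect; inactive = the rest, general growth blockers included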;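 also: wells of about 50 µL received 100 nL stock; 0% = vehicle wells and 100% = reference inhibitor wells; whole bacteria with a GFP reporter of the hypoxia response; strong numbers were not always called active; many hits fall short of the cut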
ugtP null kill – kills S. aureus RN4220 lacking UgtP. S. aureus RN4220 ugtP deletion, OD600 growth, 16 h; some inactives read as strong as hits. growth inhibition, % (no concentration beside the values). 330,000 tested, 0.54% active;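 active = z-score under -3 and OD600 up to 0.15 on both plates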;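 also: plate controls were untreated wells for no effect and antibiotic for full effect; wells of about 80 µL received 100 nL stock; the first replicate is given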
Bead autofluor – counter-screen for toxin protease inhibitors: compound fluorescence | compound autofluorescence counterscreen, microsphere flow cytometry; hits give high values | fluorescence intensity (no concentration beside the values) | 360,000 tested, 3.1% active | AID 624483;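 active = at least 3 SD above the mean of all compounds, about 16000 in these data; inconclusive = too few beads counted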;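 also: 100 nL of 1 mM stock went into each well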
Mtb hypoxia inh growth – further read-out of Mtb hypoxia inh, marked with its call; growth inhibition, %; measured here: M. tuberculosis growth (absorbance);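 0% = vehicle and 100% = reference antibiotic; read after six days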
Starred values were filed as active, the others as inactive; ? = inconclusive; . = not tested or not shown.

SMILES	BJeLR lethal	Sa RN4220 lethal	PrP UTR inh	Mtb hypoxia inh	Mtb hypoxia inh growth	ugtP null kill	Bead autofluor
CN1CCN(C2=Cc3cc(Cl)ccc3Sc3cc(F)ccc32)CC1	15	30	-13	.	.	10	3231
CCC(=O)c1ccc(OCC(=O)OCC(=O)Nc2cccc(S(=O)(=O)N3CCOCC3)c2)cc1	.	4.4	-15	12	6	2	4304
O=C(CNC(=S)N(Cc1ccccc1F)C1CCCCC1)NCCCN1CCOCC1	.	6.6	-37	0	12	4	3809
CC(C)(C)N1C(=O)[C@H]2[C@@H](c3ccc(Br)cc3)N3C(=O)N(c4ccc(Br)cc4)C(=O)[C@@]3(Cc3ccccc3)[C@H]2C1=O	9	.	-3	.	.	.	3867
O=C(c1ccc(Cn2c(=S)[nH]c3ccc(Br)cc3c2=O)cc1)N1CCN(C2CCCCC2)CC1	10	.	0	.	.	.	4164
O=C(/C=C/c1cccs1)N1CCc2ccccc21	2	11	-28	16	-4	3	2445
CCN(CC)S(=O)(=O)c1ccc(NC(=O)COC(=O)CCc2cc(OC)c(OC)c(OC)c2)cc1	10	3.7	-7	-2	7	1	2040
CCCCCCn1c(C(C)NC(=O)c2ccco2)nc2ccccc21 (centres undefined)	-9	5.6	4	.	.	-17	4309
Cc1ccccc1CN(C)C(=O)COC(=O)c1ccc2[nH]c(C)c(C)c2c1	.	5.1	-20	11	10	-2	4476
C=CCn1c(=N)n(CC(=O)O)c2ccccc21	4	0.2	5	.	.	-2	2304

Given in markdown: entries from further up.
| Compound | BJeLR lethal | Sa RN4220 lethal | PrP UTR inh | Mtb hypoxia inh | Mtb hypoxia inh growth | ugtP null kill | Bead autofluor |
| --- | --- | --- | --- | --- | --- | --- | --- |
| CCCCCCn1c(C(C)NC(=O)c2ccco2)nc2ccccc21 (centres undefined) | -9 | 5.6 | 4 | . | . | -17 | 4309 |
| Cc1ccccc1CN(C)C(=O)COC(=O)c1ccc2[nH]c(C)c(C)c2c1 | . | 5.1 | -20 | 11 | 10 | -2 | 4476 |

(further entries)
SMILES	BJeLR lethal	Sa RN4220 lethal	PrP UTR inh	Mtb hypoxia inh	Mtb hypoxia inh growth	ugtP null kill	Bead autofluor
CC(=O)Nc1ccc2c(c1)NC(=O)CC2	3	-1.1	-1	-4	6	0	2468
CC1CCCC(C)N1N=Cc1ccc(C(=O)O)cc1 (centres undefined)	.	4.4	.	-11	-4	6	.
CN(C)c1cc(N/N=C\c2ccccc2)nc(N(C)C)n1	2	.	-6	.	.	.	4250
Clc1ccc(CN2CCCCCCC2)cc1	-5	2.9	-22	-1	12	4	2665
COC(=O)c1cnn(-c2cc(Oc3cccc(C)c3)ncn2)c1N	-9	12	-32	5	4	11	2875
O=C(CN(Cc1cccs1)C(=O)CNS(=O)(=O)c1ccc(Cl)cc1)NCc1ccco1	-5	0.5	-6	3	21	-4	21887*
CCc1noc(C)c1C(=O)Nc1nc2c(C)cccc2s1	-1	4.1	-17	10	-9	-7	5510
O=C(COC(=O)CCc1c[nH]c2ccccc12)Nc1ccc([N+](=O)[O-])cc1	1	8.4	-11	4	-3	-9	4351
Cc1ccc(S(=O)(=O)N(C)c2ccc(C(=O)N3CCC(C(N)=O)CC3)cc2)cc1	.	0.6	-24	.	.	4	2797
O=C(c1ccc(CS(=O)Cc2ccc(Cl)cc2)o1)N1CCN(c2cccc(Cl)c2)CC1 (centres undefined)	-3	-7.7	-26	0	4	93*	6289
COc1ccc(OC)c2[nH]c(=O)c(CCNC(=O)C3CCCCC3)cc12	-7	4.4	-1	.	.	1	2252
O=C1CC(Nc2ccc(N3CCOCC3)cc2)C(=O)N1c1ccccc1F (centres undefined)	1	7.6	-20	-10	8	-16	6452
O=C(O)c1ccccc1-c1ccccc1C(=O)Nc1cccc2ccccc12	3	3.7	-20	.	.	0	8007
COc1cccc(NC(=O)Cn2cc(C#N)c3ccccc32)c1	0	2.6	-7	11	6	-11	2583
O=C(NNC(=O)c1cncc(Br)c1)c1ccncc1	.	0.8	.	-10	-8	1	6439
CCCCCCC(=O)OCC(=O)c1ccc2c(c1)NC(=O)CO2	-1	2.1	-9	-7	6	5	4333
O=C(CCC(=O)Nc1ccccc1Cl)NN=C1CCCC1	.	2.0	-12	3	8	5	?
COc1ccc2nc(-c3cccc(N)c3)[nH]c2c1	8	-0.3	-16	.	.	-1	4402
Cc1nn(-c2ccccc2)cc1/C=N/NC(=O)c1cccs1	-5	.	-4	.	.	.	4105
O=C1OCCN/C1=C\C(=O)c1ccccc1	-9	5.4	-3	5	4	7	3614
CN(C)N=Nc1nc2c([nH]1)c(=O)n(C)c(=O)n2C	-4	-3.9	-8	4	17	-4	3917
CC1CCCCN1S(=O)(=O)c1ccc(C(=O)Nc2ccccc2-c2nc3ccccc3[nH]2)cc1 (centres undefined)	-5	7.9	-22	4	-1	-36	10239
O=C(NCCS(=O)(=O)N1CCN(c2ccc(F)cc2)CC1)c1ccc(Br)o1	-3	1.9	-11	-11	-5	-1	5463
CSc1nc(O)c(C(c2ccccc2Cl)c2c(O)nc(SC)[nH]c2=O)c(=O)[nH]1	10	7.9	-45	7	4	-4	5584
CN(C(=O)c1cccc(NC(=O)Cc2ccc(NC(=O)C3CCCN(S(=O)(=O)c4cccc([N+](=O)[O-])c4)C3)cc2)c1)C1CCCCC1 (centres undefined)	.	3.9	-16	-8	2	-2	3964
CCN1c2nc3c(C)cccn3c(=O)c2CC2(C(=O)N(C)C(=O)N(C)C2=O)C1C (centres undefined)	-5	-1.1	-8	5	0	-7	9639
Cc1ccc(-n2ncc3ccccc3c2=O)cc1Cl	-6	3.2	-50	6	2	0	4467
CCOC(=O)C1C(=O)C(=O)N(Cc2ccccc2)C1C(=O)OCC (centres undefined)	.	2.5	-12	11	7	-2	4090
CCc1nc(NC(Cc2c[nH]c3ccccc23)C(=O)O)c2oc3ccccc3c2n1 (centres undefined)	.	4.4	.	8	7	3	.
Cc1nnc2ccc(-c3ccc(NS(=O)(=O)c4ccccc4)cc3)nn12	.	6.2	-23	-2	-4	0	5846
COCCNc1nnc(SCC(=O)Nc2cc(-c3ccccc3)nn2-c2ccccc2)s1	-2	-5.2	0	-4	-4	-5	2565
CN(CC(=O)Nc1ccc(F)cc1)CC(=O)NC1CCCCC1	.	4.4	-12	4	1	4	?
CC(=O)NCCNc1ccc([N+](=O)[O-])cc1C#N	-8	1.2	-21	3	-4	3	4367
CCCCC(=O)N/N=C/c1ccc(N2CCOCC2)c([N+](=O)[O-])c1	5	.	-15	.	.	.	2520
Cn1c(CC(=O)Nc2ccccc2F)nnc1SCC(=O)N1CCOCC1	-7	4.1	-26	9	-8	3	5454
CC(C)Oc1ccc(S(=O)(=O)N2CCOCC2)cc1NC(=O)c1cccc(S(=O)(=O)N2CCCC2)c1	.	2.2	-2	-4	7	-1	3779
OC1CCN(Cc2ccc3ccccc3c2)CC1	4	0.8	-23	11	7	11	3330
O=C(NC1CCCC1)C1CC(=O)N(C2CCCCCCC2)C1 (centres undefined)	-2	3.7	-29	7	6	9	10863
CN(C(=O)Oc1ccc(Cl)c2cccnc12)c1ccccc1	-8	3.5	-20	6	15	7	2561
O=C(NN=Cc1cc2c(cc1Cl)OCO2)c1cccs1	.	1.0	.	-1	1	-6	.
O=C(CCS(=O)(=O)c1ccc(Br)cc1)NC1CCCCCC1	8	6.9	-11	-10	-17	-4	5718
Oc1ccc(C2Nc3cccc4cccc(c34)N2)c(O)c1	0	-20	-8	15	18	-16	2559
CCc1ccc2[nH]c(=O)c(CN(Cc3ccccc3)C(=O)Nc3ccccc3OC)cc2c1	1	-0.9	-17	14	0	-10	15755
CCCn1c(NC(=O)CCNC(=O)c2ccccc2Cl)nc2ccccc21	.	-0.3	-7	9	9	3	9031
COCCN1CCN(Cc2cn[nH]c2-c2cc3ccccc3o2)CC1	-14	-0.4	-17	8	-2	6	2623
O=C(CCC(=O)c1cccs1)OCC(=O)N1CCN(S(=O)(=O)c2ccccc2)CC1	-19	2.0	4	5	5	4	9670
O=C(COc1ccccc1Cl)NCCCNC(=O)c1ccccn1	1	1.6	-6	9	-3	-2	3810
CC(C)(C)NC(=O)C(c1cccs1)N(C(=O)c1csnn1)c1ccccc1F (centres undefined)	-6	5.8	-13	9	4	-3	4421
N#CCCn1cnc2ccccc21	-4	4.5	-14	3	-4	-2	2898
Cc1ccnc(NS(=O)(=O)c2ccc(NC(=O)CCS(=O)(=O)c3ccccc3)cc2)n1	-10	4.3	-23	9	16	2	2235

Later entries
SMILES	BJeLR lethal	Sa RN4220 lethal	PrP UTR inh	Mtb hypoxia inh	Mtb hypoxia inh growth	ugtP null kill	Bead autofluor
Nc1ncnc(Nc2ccc(F)cc2)n1	-14	5.9	-33	7	0	-2	8652
Cc1ccccc1C(=O)OCc1cnc(Cl)s1	.	6.7	-18	0	1	9	3505
COc1ccc(N2CCN(S(=O)(=O)c3cn(C)c(=O)n(C)c3=O)CC2)cc1	12	8.4	-11	9	2	6	4908
O=C(CN1C(=O)c2cccc3cccc1c23)N1CCN(c2ccccc2)CC1	-1	-3.1	-33	.	.	8	4892
Cc1cccc(Cn2c(SCCN3CCOCC3)nc3c2c(=O)n(C)c(=O)n3C)c1	1	-13	-16	7	4	-2	7164
CN(C(=O)CCS(=O)(=O)c1cc2c(cc1Cl)NC(=O)CO2)C1CCCCC1	5	2.9	-12	2	-2	-5	5739
CC(C)(C)c1ccc(-n2ncc3c2CCCC3NC(=O)CN2CCCCC2=O)cc1 (centres undefined)	8	2.6	-10	-6	-2	0	4088
CCn1c(SCC(=O)N/N=C/c2c[nH]c3ccccc23)nnc1-c1ccc(C)cc1	2	.	-10	.	.	.	3206
CN(C)c1ccc(C=C2C(=O)OC3(CCCC3)OC2=O)cc1	8	1.1	-8	-8	7	0	4632
COc1cc(CN2CCC(C(=O)NC3CCCC3)CC2)cc(Br)c1O	9	2.4	-33	1	1	6	23761*
CN(CCOc1ccc(Br)cc1)CC(O)COc1ccc(C#N)cc1 (centres undefined)	1	.	-8	.	.	.	4197
CCOC(=O)c1nc2nc(-c3cccs3)cc(C(F)(F)F)n2n1	-4	5.3	-25	-1	9	-17	7471
O=C(CSC1=NNC(c2ccccn2)S1)Nc1ccccc1 (centres undefined)	-2	1.9	-18	6	1	2	3225
Cc1ccc(CCC(=O)Nc2ncc(Cc3cc(Cl)ccc3Cl)s2)o1	42	9.1	78*	3	12	-10	2569
CCOC(=O)N1C(=O)[C@@](c2ccc(Cl)cc2)(C(C)C)N1C(=O)OCC	1	.	-17	.	.	.	2868
O=C(Oc1ccc2ccccc2c1Cl)N1CCCCCC1	3	7.0	-102	1	4	32	2135
Cc1coc2c1c(C)cc1oc(=O)c(CC(=O)N[C@@H](CC(C)C)C(=O)O)c(C)c12	-1	0.1	-10	3	1	9	3146
CCc1nc(NCC(C)C)c(C#N)c2c1COC(C)(C)C2	8	6.7	-8	3	9	6	3133

Part of the list above, as a markdown table:
| Molecule | BJeLR lethal | Sa RN4220 lethal | PrP UTR inh | Mtb hypoxia inh | Mtb hypoxia inh growth | ugtP null kill | Bead autofluor |
| --- | --- | --- | --- | --- | --- | --- | --- |
| CCOC(=O)c1nc2nc(-c3cccs3)cc(C(F)(F)F)n2n1 | -4 | 5.3 | -25 | -1 | 9 | -17 | 7471 |
| CCOC(=O)N1C(=O)[C@@](c2ccc(Cl)cc2)(C(C)C)N1C(=O)OCC | 1 | . | -17 | . | . | . | 2868 |
| Cc1ccc(CCC(=O)Nc2ncc(Cc3cc(Cl)ccc3Cl)s2)o1 | 42 | 9.1 | 78* | 3 | 12 | -10 | 2569 |
| CCc1nc(NCC(C)C)c(C#N)c2c1COC(C)(C)C2 | 8 | 6.7 | -8 | 3 | 9 | 6 | 3133 |
| Cc1coc2c1c(C)cc1oc(=O)c(CC(=O)N[C@@H](CC(C)C)C(=O)O)c(C)c12 | -1 | 0.1 | -10 | 3 | 1 | 9 | 3146 |
| O=C(Oc1ccc2ccccc2c1Cl)N1CCCCCC1 | 3 | 7.0 | -102 | 1 | 4 | 32 | 2135 |
| O=C(CSC1=NNC(c2ccccn2)S1)Nc1ccccc1 (centres undefined) | -2 | 1.9 | -18 | 6 | 1 | 2 | 3225 |
